Yeast UUG start: modulators of yeast start codon fidelity, primary screen, whole organism, S. cerevisiae, single point, plate reader | S. cerevisiae UUG-firefly luciferase reporter, luminescence/redox ratio | activity score, % at 18.7 µM | 350,000 tested, 0.13% active;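 active = replicate mean at a twofold rise or more, about +100% in these data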;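 note: firefly luciferase made from a UUG start codon reports start codon fidelity; reporter light over untreated wells divided by growth signal over untreated wells; some hits fall short of that in this replicate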
HIV Env fusion: inhibitors of HIV-1 Env-driven cell-cell fusion, primary screen, HeLa-JRFL effector, CEM21 target cells, luciferase. inhibition, % at 12.3 µM. 360,000 tested, 1.1% active. AID 651610, 2012;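 active = mean replicate inhibition score of at least 50 and every replicate individually at or above 50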;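 note: 0% = plate neutral controls and 100% = maraviroc near 300 nM; one replicate is shown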
Active calls of the source: *; [ ] = dose if it differs, or a comment. These rows are one share of the data; count on the stated rates, not on these rows.

SMILES | Yeast UUG start | HIV Env fusion
O=C(C[C@@H]1C[C@H]2c3cc(NC(=O)Nc4ccc(F)cc4)ccc3O[C@H]2[C@@H](CO)O1)NC1CCCC1 | -6 | 6[16.7 µM]
C[C@H]1CN([C@@H](C)CO)C(=O)c2cc(NC(=O)Cc3ccccc3)ccc2O[C@H]1CN(C)Cc1ccc(C(F)(F)F)cc1 | -7 | -16[16.7 µM]
COc1ccc(NC(=O)Nc2cccc3c2O[C@H](CN(C)Cc2ccccc2)[C@H](C)CN([C@@H](C)CO)C3=O)cc1 | 18 | -44[16.7 µM]
CC(C)CC#Cc1ccc2c(c1)O[C@@H](CN(C)C(=O)c1ccncc1)[C@H](C)CN([C@@H](C)CO)S2(=O)=O | -22 | -16[16.7 µM]
C[C@@H]1CN([C@H](C)CO)C(=O)Cc2cc(NS(C)(=O)=O)ccc2O[C@H]1CN(C)S(=O)(=O)c1ccc(Cl)cc1 | -1 | 13[16.7 µM]
COCCOC(=O)N1C(=O)[C@@]2(c3cc(C#CC4=CCCCC4)ccc31)[C@H](C(=O)NC[C@H](O)c1ccccc1)[C@H]1C(=O)O[C@H](c3ccccc3)[C@H](c3ccccc3)N1[C@@H]2c1ccc(O)cc1 | -6 | -24[16.7 µM]
COc1ccccc1-c1cn(CC[C@@H]2CC[C@H](NC(=O)Cc3ccccn3)[C@@H](CO)O2)nn1 | -3 | -108[16.7 µM]
C[C@H]1CN([C@@H](C)CO)C(=O)c2cccc(NS(=O)(=O)c3ccc(Cl)cc3)c2O[C@@H]1CN(C)Cc1ccc(C(=O)O)cc1 | 16 | 3[16.7 µM]
C[C@@H]1CCCCO[C@@H](CN(C)C(=O)CCC(F)(F)F)[C@@H](C)CN([C@H](C)CO)C(=O)c2cc(NC(=O)Cc3ccccc3)ccc2O1 | 2 | 24[16.7 µM]
Cc1ccc(S(=O)(=O)N(C)C[C@@H]2Oc3c(NC(=O)c4cnccn4)cccc3C(=O)N([C@@H](C)CO)C[C@@H]2C)cc1 | -1 | -17[16.7 µM]
C[C@H](CO)N1C[C@H](C)[C@@H](CN(C)Cc2ccccn2)Oc2ncc(C#CCN(C)C)cc2C1=O | -23 | -10[16.7 µM]
O=C(C[C@@H]1C[C@H]2c3cc(NC(=O)C4CCOCC4)ccc3O[C@H]2[C@@H](CO)O1)NCCc1ccccc1 | 1 | 26[16.7 µM]
C[C@H](CO)N1C[C@H](C)[C@H](CN(C)C(=O)C2CC2)Oc2cc(-c3ccc(F)cc3)ccc2S1(=O)=O | -9 | 7[16.7 µM]
CC(C)NC(=O)N(C)C[C@H]1Oc2ccc(NS(=O)(=O)c3ccccc3)cc2CC(=O)N([C@H](C)CO)C[C@H]1C | -1 | -7[16.7 µM]
C[C@@H]1CN([C@H](C)CO)C(=O)c2cc(C#Cc3ccccc3)cnc2O[C@@H]1CN(C)Cc1ccccn1 | -32 | -20[16.7 µM]
COc1ccc(NC(=O)N(C)C[C@H]2OCCCC[C@H](C)Oc3ccc(NS(=O)(=O)c4ccc(OC)cc4)cc3C(=O)N([C@@H](C)CO)C[C@H]2C)cc1 | -1 | -21[16.7 µM]
Cc1ccc(S(=O)(=O)N(C)C[C@@H]2OCCCC[C@@H](C)Oc3ccc(NS(=O)(=O)c4ccc(F)cc4)cc3C(=O)N([C@@H](C)CO)C[C@@H]2C)cc1 | -6 | 4[16.7 µM]
Cc1noc(C)c1S(=O)(=O)Nc1cccc2c1O[C@@H](CN(C)C(=O)NC(C)C)[C@@H](C)CN([C@@H](C)CO)C2=O | 0 | 12[16.7 µM]
CN(C)CC(=O)N[C@H]1CC[C@H](CC(=O)NCc2ccc(Cl)cc2)O[C@H]1CO | 0 | 13[16.7 µM]
CO[C@@H]1CN(C)C(=O)c2cc(NC(=O)c3ccno3)ccc2OC[C@H](C)NC[C@@H]1C | -9 | -5[16.7 µM]
COc1ccccc1-c1cnc2c(c1)C(=O)N([C@H](C)CO)C[C@@H](C)[C@@H](CN(C)C(C)=O)O2 | -1 | -34[16.7 µM]
C[C@@H]1CN([C@@H](C)CO)C(=O)c2cccc(NS(=O)(=O)c3cccs3)c2O[C@@H]1CN(C)Cc1ccc(C(F)(F)F)cc1 | 12 | 68*[16.7 µM]
CC(C)c1cn(CC[C@H]2CC[C@H](NC(=O)Nc3cc(Cl)cc(Cl)c3)[C@H](CO)O2)nn1 | -20 | -1[16.7 µM]
COc1ccc(NC(=O)N(C)C[C@@H]2OCCCC[C@@H](C)Oc3ccc(NC(=O)CCC(F)(F)F)cc3C(=O)N([C@H](C)CO)C[C@H]2C)cc1 | 21 | -21[16.7 µM]
COc1ccc(NC(=O)N[C@@H]2CC[C@@H](CCn3cc(-c4ccccc4F)nn3)O[C@@H]2CO)cc1 | -5 | -132[16.7 µM]
C[C@@H]1CN([C@H](C)CO)C(=O)c2cc(C3=CCCC3)cnc2O[C@H]1CN(C)C(=O)c1ccc(F)cc1 | 5 | 15[16.7 µM]
C[C@H]1CN([C@@H](C)CO)S(=O)(=O)c2ccc(-c3cncnc3)cc2O[C@H]1CN(C)C(=O)C1CCCCC1 | 6 | -6[16.7 µM]
COc1ccc(NC(=O)Nc2ccc3c(c2)C(=O)N([C@@H](C)CO)C[C@@H](C)[C@@H](CN(C)Cc2ccc(C(=O)O)cc2)OCCCC[C@H](C)O3)cc1 | 4 | -41[16.7 µM]
C[C@@H]1CCCCO[C@@H](CN(C)S(C)(=O)=O)[C@H](C)CN([C@H](C)CO)C(=O)c2cc(NC(=O)Nc3ccc(F)cc3)ccc2O1 | 17 | -3[16.7 µM]
C[C@H]1CN([C@@H](C)CO)C(=O)Cc2cc(NC(=O)Nc3ccc(F)cc3)ccc2O[C@@H]1CN(C)C(=O)NC1CCCCC1 | 3 | -24[16.7 µM]
CN(C)CCCNC(=O)C[C@H]1CC[C@@H]2[C@H](COC[C@H](O)CN2CC2CCCC2)O1 | 2 | 27[16.7 µM]
CN1C(=O)c2cc(NC(=O)Nc3ccccc3)ccc2OC[C@H]2O[C@@H](CC(=O)NC3CCC3)CC[C@@H]21 | 8 | 0[16.7 µM]
CO[C@@H]1CN(C)C(=O)c2ccc(NC(=O)NC(C)C)cc2OC[C@@H](C)N(CC2CC2)C[C@@H]1C | -5 | -12[16.7 µM]
C[C@@H]1CN([C@H](C)CO)C(=O)c2cccc(NS(=O)(=O)c3ccc(Cl)cc3)c2O[C@H]1CN(C)Cc1ccc(Cl)c(Cl)c1 | 3 | -19[16.7 µM]
C[C@@H]1CN([C@@H](C)CO)C(=O)c2cc(C#CC3CCCC3)cnc2O[C@H]1CN(C)S(=O)(=O)c1cccc(F)c1 | -1 | 27[16.7 µM]
COc1ccc(S(=O)(=O)Nc2ccc3c(c2)C(=O)N([C@H](C)CO)C[C@H](C)[C@H](CN(C)Cc2ccc(C(=O)O)cc2)OCCCC[C@H](C)O3)cc1 | 7 | -25[16.7 µM]

Eight of these compounds, reformatted:
Yeast UUG start | HIV Env fusion | Structure
17 | -3[16.7 µM] | C[C@@H]1CCCCO[C@@H](CN(C)S(C)(=O)=O)[C@H](C)CN([C@H](C)CO)C(=O)c2cc(NC(=O)Nc3ccc(F)cc3)ccc2O1
3 | -24[16.7 µM] | C[C@H]1CN([C@@H](C)CO)C(=O)Cc2cc(NC(=O)Nc3ccc(F)cc3)ccc2O[C@@H]1CN(C)C(=O)NC1CCCCC1
2 | 27[16.7 µM] | CN(C)CCCNC(=O)C[C@H]1CC[C@@H]2[C@H](COC[C@H](O)CN2CC2CCCC2)O1
8 | 0[16.7 µM] | CN1C(=O)c2cc(NC(=O)Nc3ccccc3)ccc2OC[C@H]2O[C@@H](CC(=O)NC3CCC3)CC[C@@H]21
-5 | -12[16.7 µM] | CO[C@@H]1CN(C)C(=O)c2ccc(NC(=O)NC(C)C)cc2OC[C@@H](C)N(CC2CC2)C[C@@H]1C
3 | -19[16.7 µM] | C[C@@H]1CN([C@H](C)CO)C(=O)c2cccc(NS(=O)(=O)c3ccc(Cl)cc3)c2O[C@H]1CN(C)Cc1ccc(Cl)c(Cl)c1
-1 | 27[16.7 µM] | C[C@@H]1CN([C@@H](C)CO)C(=O)c2cc(C#CC3CCCC3)cnc2O[C@H]1CN(C)S(=O)(=O)c1cccc(F)c1
7 | -25[16.7 µM] | COc1ccc(S(=O)(=O)Nc2ccc3c(c2)C(=O)N([C@H](C)CO)C[C@H](C)[C@H](CN(C)Cc2ccc(C(=O)O)cc2)OCCCC[C@H](C)O3)cc1

Further entries follow.
SMILES | Yeast UUG start | HIV Env fusion
C[C@H](CO)N1C[C@H](C)[C@@H](CN(C)C(=O)Nc2cc(F)ccc2F)Oc2cc(-c3cccc(F)c3)ccc2S1(=O)=O | 3 | -36[16.7 µM]
C[C@H]1CN([C@@H](C)CO)C(=O)c2cc(NS(=O)(=O)c3ccc(Cl)cc3)ccc2O[C@H]1CN(C)CC1CC1 | 23 | 9[16.7 µM]
CC(=O)N(C)C[C@@H]1Oc2ncc(C3=CCCC3)cc2C(=O)N([C@H](C)CO)C[C@H]1C | 9 | -19[16.7 µM]
CCCC#Cc1cnc2c(c1)C(=O)N([C@H](C)CO)C[C@H](C)[C@H](CN(C)C(=O)NC1CCCC1)O2 | 1 | 10[16.7 µM]
COc1ccc(S(=O)(=O)N(C)C[C@@H]2Oc3c(NS(=O)(=O)c4ccc(Cl)cc4)cccc3C(=O)N([C@H](C)CO)C[C@H]2C)cc1 | -8 | 15[16.7 µM]
C[C@H]1CN([C@@H](C)CO)S(=O)(=O)c2ccc(-c3cccc(C#N)c3)cc2O[C@H]1CN(C)C(=O)c1cccnc1 | -12 | 6[16.7 µM]
Cc1cc(C(=O)Nc2cccc3c2O[C@H](CN(C)Cc2ccccc2)[C@H](C)CN([C@H](C)CO)C3=O)n(C)n1 | -5 | 17[16.7 µM]
CC(C)NC(=O)Nc1cccc2c1O[C@H](CN(C)CC1CCCCC1)[C@@H](C)CN([C@H](C)CO)C2=O | -14 | -6[16.7 µM]
C[C@H](CO)N1C[C@H](C)[C@H](CN(C)Cc2ccccc2)Oc2cc(-c3cncnc3)ccc2S1(=O)=O | 6 | 7[16.7 µM]
C[C@H](CO)N1C[C@H](C)[C@@H](CN(C)C(=O)Nc2ccccc2)Oc2ccc(NC(=O)C3CCCCC3)cc2CC1=O | 9 | 18[16.7 µM]
COc1ccc(S(=O)(=O)N(C)C[C@H]2Oc3ccc(N(C)C)cc3C(=O)N([C@@H](C)CO)C[C@@H]2C)cc1 | -7 | 12[16.7 µM]
O=C(C[C@@H]1CC[C@@H](NC(=O)C2CC2)[C@H](CO)O1)Nc1nccs1 | -19 | 22[16.7 µM]

HIV Env fusion, what is marked active above.
SMILES | Yeast UUG start | HIV Env fusion
C[C@@H]1CN([C@@H](C)CO)C(=O)c2cccc(NS(=O)(=O)c3cccs3)c2O[C@@H]1CN(C)Cc1ccc(C(F)(F)F)cc1 | 12 | 68*[16.7 µM]

More structures
SMILES | Yeast UUG start | HIV Env fusion
C[C@@H]1CN([C@@H](C)CO)S(=O)(=O)c2ccc(-c3ccncc3)cc2O[C@@H]1CN(C)C(=O)CN(C)C | -12 | -5[16.7 µM]
Cc1noc(C)c1NC(=O)N(C)C[C@@H]1OCCCC[C@H](C)Oc2ccc(NC(=O)Cc3ccccc3)cc2C(=O)N([C@@H](C)CO)C[C@@H]1C | 1 | -21[16.7 µM]
C[C@H](CO)N1C[C@H](C)[C@@H](CN(C)S(=O)(=O)c2ccc(F)cc2)OCCCC[C@H](C)Oc2ccc(NS(=O)(=O)c3ccc(F)cc3)cc2C1=O | 0 | -19[16.7 µM]
C[C@@H]1CN([C@H](C)CO)C(=O)c2cc(C#CCN(C)C)cnc2O[C@@H]1CN(C)Cc1ccncc1 | -15 | -8[16.7 µM]
C[C@@H]1CCCCO[C@@H](CN(C)Cc2ccc(C(=O)O)cc2)[C@@H](C)CN([C@H](C)CO)C(=O)c2cc(NC(=O)CCC(F)(F)F)ccc2O1 | -11 | -16[16.7 µM]
C[C@@H]1CCCCO[C@H](CN(C)S(=O)(=O)c2ccc(F)cc2)[C@@H](C)CN([C@H](C)CO)C(=O)c2cc(NS(=O)(=O)c3ccccc3)ccc2O1 | 19 | 0[16.7 µM]
C[C@@H]1CCCCO[C@@H](CN(C)C(=O)Nc2ccc3c(c2)OCO3)[C@@H](C)CN([C@H](C)CO)C(=O)c2cc(NS(=O)(=O)c3ccccc3)ccc2O1 | 7 | 13[16.7 µM]
C[C@@H]1CCCCO[C@@H](CN(C)S(=O)(=O)c2cccs2)[C@@H](C)CN([C@H](C)CO)C(=O)c2cc(NS(=O)(=O)c3ccc(Cl)cc3)ccc2O1 | 2 | -30[16.7 µM]
O=C(C[C@H]1CC[C@@H]2[C@H](COC[C@H](O)CN2CC2CCCCC2)O1)NCc1ccc(F)cc1 | -2 | 5[16.7 µM]
C[C@H](CO)N1C[C@H](C)[C@H](CN(C)Cc2ccc(Oc3ccccc3)cc2)Oc2c(NC(=O)Nc3ccc(C(F)(F)F)cc3)cccc2C1=O | 0 | 28[16.7 µM]
C[C@@H]1CN([C@H](C)CO)C(=O)c2cccc(NS(C)(=O)=O)c2O[C@@H]1CN(C)CC1CCCCC1 | -8 | 4[16.7 µM]
C[C@H]1CN([C@@H](C)CO)C(=O)c2cc(-c3ccccc3)cnc2O[C@H]1CN(C)C(=O)c1cccnc1 | 8 | 5[16.7 µM]
Cc1ccc(S(=O)(=O)N(C)C[C@H]2OCCCC[C@H](C)Oc3ccc(NS(=O)(=O)c4ccccc4)cc3C(=O)N([C@@H](C)CO)C[C@@H]2C)cc1 | 24 | -9[16.7 µM]
Cc1noc(C)c1NC(=O)Nc1ccc2c(c1)CC(=O)N([C@@H](C)CO)C[C@@H](C)[C@@H](CN(C)Cc1ccccc1)O2 | -10 | 2[16.7 µM]
C[C@@H]1CN([C@H](C)CO)C(=O)Cc2cc(NC(=O)CCN3CCOCC3)ccc2O[C@H]1CN(C)Cc1ccc(C(=O)O)cc1 | -3 | 15[16.7 µM]
COc1ccc(NC(=O)N(C)C[C@@H]2OCCCC[C@H](C)Oc3ccc(NC(=O)Nc4c(C)noc4C)cc3C(=O)N([C@H](C)CO)C[C@@H]2C)cc1 | -5 | -28[16.7 µM]
